# Bioassay records from PubChem.
# rRNA inh HTS = inhibitors of bacterial rRNA selective over humanized ribosomes; AID 720706; hit rate 1.6% among 350,000; GFP signal change (wild-type ribosome), % (no concentration beside the values); E. coli WT GFP vs humanized-ribosome RFP mutants, fluorescence, 24 h; hits give low values; DMSO median 0, no signal -100;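 active = significant combined selectivity score with lowered wild-type GFP, culture density cut under 30%, mutant RFP and density less affected; inactive = any of these conditions unmet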; also: one replicate is shown; some compounds called inactive have numbers as strong as hits
# AF4-AF9 inh = inhibitors of human MLL-AF4/AF9 interaction; P42568; AlphaScreen, biotin-AF4 peptide binding to FLAG-AF9; inhibition, % at 10 µM; hit rate 0.47% among 350,000; AID 651704;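 active = every replicate reaching a set inhibition limit, whatever the replicate mean, cut at about 25% in these data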;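 also: 0% = plate neutral control median and 100% = total signal loss; the record names both 10 and 1 µM as test concentration; the first replicate is given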
# Target sequence (P42568 whole entry, looked up): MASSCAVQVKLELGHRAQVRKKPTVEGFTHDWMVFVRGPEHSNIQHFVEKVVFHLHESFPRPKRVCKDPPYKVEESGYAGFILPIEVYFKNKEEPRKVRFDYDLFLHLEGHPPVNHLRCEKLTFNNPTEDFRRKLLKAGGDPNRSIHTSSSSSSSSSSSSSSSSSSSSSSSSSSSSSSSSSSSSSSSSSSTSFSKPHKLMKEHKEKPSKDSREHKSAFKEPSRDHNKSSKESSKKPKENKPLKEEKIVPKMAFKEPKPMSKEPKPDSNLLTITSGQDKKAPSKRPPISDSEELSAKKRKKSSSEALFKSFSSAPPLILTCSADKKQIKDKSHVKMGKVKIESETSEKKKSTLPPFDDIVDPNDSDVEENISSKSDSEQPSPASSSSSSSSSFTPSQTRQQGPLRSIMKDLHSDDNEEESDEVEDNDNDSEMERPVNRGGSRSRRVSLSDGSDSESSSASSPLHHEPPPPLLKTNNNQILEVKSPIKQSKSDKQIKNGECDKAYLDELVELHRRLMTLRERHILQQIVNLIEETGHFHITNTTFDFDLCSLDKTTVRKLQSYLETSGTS
# FGF22 binding = shifts melting point of recombinant human FGF22; Q9HCT0; recombinant FGF22 thermal shift, SYPRO orange fluorescence; percent of sucrose octasulfate shift, DMSO zero; calls only at 9.99 µM; hit rate 1.5% among 340,000; AID 651658;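 active = melting point raised past a set limit in the mean and every replicate; three in four hits are not shown here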
# Target sequence (Q9HCT0 whole entry, looked up): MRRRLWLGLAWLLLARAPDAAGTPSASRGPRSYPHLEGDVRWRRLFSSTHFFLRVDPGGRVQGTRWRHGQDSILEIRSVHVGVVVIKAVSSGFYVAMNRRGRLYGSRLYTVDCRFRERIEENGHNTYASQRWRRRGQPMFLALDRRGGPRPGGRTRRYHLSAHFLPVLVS
# rRNA inh HTS OD600 = recorded beside rRNA inh HTS, whose call it bears; OD600 change, %; measured here: OD600 growth;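 optical density of the mix in the first replicate; 0 = DMSO median and -100 = no signal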
# rRNA inh HTS RFP = also measured in rRNA inh HTS; calls as there; RFP signal change, %; measured here: RFP humanized mutant strains;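 first replicate; 0 = DMSO median and -100 = no signal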
# * hit, by the source's call; i = inactive; & = joins results of further samples. These rows are one share of the data; rates above refer to the full screens.
SMILES,rRNA inh HTS,rRNA inh HTS OD600,rRNA inh HTS RFP,AF4-AF9 inh,FGF22 binding
CCC(=O)Nc1ccc2c(c1)C(=O)N(C)C[C@H](OC)[C@H](C)CN(C(=O)Cc1cccnc1)[C@@H](C)CO2,3.3,9.1,-1.7,2.6,i
CCOc1ccc(C(=O)NCC(=O)NNC(=O)CN(C)S(=O)(=O)c2ccc(Cl)cc2)cc1OCC,7.7,8.7,-0.9,-3.3,i
O=C(C[C@H]1C=C[C@H](NC(=O)c2cccc(F)c2)[C@@H](CO)O1)NCc1ccccc1,3.3,-5.4,-0.4,0.3,i
C[C@@H]1CN([C@@H](C)CO)C(=O)c2cc(-c3ccccc3F)cnc2O[C@H]1CN(C)C(=O)c1ccccn1,-1.7,-5.3,0.6,0.1,i
CCCN1[C@@H]2c3ccc(C4=CCCCC4)c(=O)n3C[C@@H]2[C@@H](CO)[C@@H]1C(=O)NC1Cc2ccccc2C1,-19.1,-54.8,22.8,8.6,i
C[C@H](O)C#Cc1ccc2c(c1)O[C@@H](CN(C)Cc1cccnc1)[C@@H](C)CN([C@@H](C)CO)S2(=O)=O,-1.0,-2.3,-2.4,0.9,i
Cc1cc2cc3c(=O)[nH]c(=O)cc-3n(CC(O)C(O)C(O)CO)c2cc1C (configuration not stated),39.1,15.6,0.9,-1.7,i
C[C@@H]1CCCCO[C@@H](CN(C)C(=O)CCCN(C)C)[C@@H](C)CN([C@H](C)CO)C(=O)c2cc(NS(=O)(=O)c3ccccc3)ccc2O1,2.1,4.9,-4.7,-2.3,i
CCNC(=O)C[C@@H]1CC[C@H]2[C@@H](COc3ccc(NC(=O)c4ccc(F)cc4)cc3C(=O)N2C)O1,5.4,7.2,0.8,-0.1,i
O=C(N[C@H]1CC[C@@H](CC(=O)N2CCCCC2)O[C@H]1CO)c1ccc2c(c1)OCO2,-1.8,1.9,-1.3,3.3,i
CO[C@H]1CN(C)C(=O)c2ccc(NC(=O)c3cccc(F)c3)cc2OC[C@H](C)N(CC2CC2)C[C@H]1C,3.5,3.6,0.5,-2.3,i
Nc1nc(N)c2cc(CNc3ccc(Cl)c(Cl)c3)ccc2n1,-58.0,-78.5,-20.3,10.2,i
COCC#Cc1cnc2c(c1)C(=O)N([C@@H](C)CO)C[C@H](C)[C@@H](CN(C)Cc1ccccc1F)O2,6.2,20.7,4.1,0.1,i
O=C(CCN1CCCCC1)N[C@H]1CC[C@@H](CCn2cc(-c3ccccc3)nn2)O[C@@H]1CO,-0.6,0.6,-1.7,0.1,i
CCOC(=O)[C@]12CCC=C1N(Cc1ccccc1)C(=O)[C@H](CC(=O)NCCCN1CCCC1=O)C2,15.7,11.0,1.4,-3.7,i
CCCNC(=O)[C@H]1[C@H](CO)[C@H]2Cn3c(ccc(/C=C/c4ccccc4)c3=O)[C@H]2N1CC1CC1,-2.9,-0.3,5.4,-11.5,i
Cc1noc(C)c1NC(=O)N(C)C[C@@H]1Oc2ccc(NC(=O)Nc3ccc(C(F)(F)F)cc3)cc2C(=O)N([C@@H](C)CO)C[C@@H]1C,-2.0,-10.4,-0.6,0.9,i
CCCNC(=O)C[C@@H]1C[C@H]2c3cc(NC(=O)NC4CCCC4)ccc3O[C@H]2[C@H](CO)O1,-0.5,-2.4,1.4,-0.7,i
CC1(Cc2cccc(C(F)(F)F)c2)C(=O)Nc2ccc(-c3ccc(F)c(Cl)c3)cc21 (configuration not stated),13.8,29.4,-2.0,-1.8,i
COCc1cn(CC[C@@H]2CC[C@H](NC(=O)Nc3ccc4c(c3)OCO4)[C@H](CO)O2)nn1,0.9,3.8,0.6,-2.8,i
COc1ccc(NC(=O)C2(C)Cc3c(-c4ccc(N(C)C)cc4)ccnc3O2)cn1 (configuration not stated),0.4,-11.0,3.5,3.7,i
C[C@@H]1CN([C@@H](C)CO)C(=O)c2cccc(NC(=O)Nc3ccccc3)c2O[C@H]1CN(C)C(=O)Nc1ccc2c(c1)OCO2,-0.1,2.4,-1.3,5.8,i
COc1ccc(S(=O)(=O)N(C)C[C@@H]2OCCCC[C@H](C)Oc3ccc(NC(=O)C4CCCCC4)cc3C(=O)N([C@@H](C)CO)C[C@@H]2C)cc1,-1.7,-0.4,0.3,-0.7,i
O=C(C[C@@H]1C[C@H]2c3cc(NC(=O)NC4CCCC4)ccc3O[C@H]2[C@@H](CO)O1)NCC1CC1,0.7,2.2,-1.0,-0.5,i
Cc1cnc(NS(=O)(=O)c2ccc(N)cc2)nc1-c1ccccc1O,4.5,2.5,-2.8,-1.7,i
COc1ccccc1C#Cc1cnc2c(c1)C(=O)N([C@@H](C)CO)C[C@@H](C)[C@@H](CN(C)S(=O)(=O)c1cn(C)cn1)O2,-0.3,-3.3,-0.1,-17.2,i
CCC(=O)N[C@@H]1CC[C@@H](CCn2cc(C3CC3)nn2)O[C@H]1CO,3.9,14.4,-2.5,-2.7,i
C[C@H](CO)N1C[C@H](C)[C@@H](CN(C)S(=O)(=O)c2cn(C)cn2)Oc2ccc(NS(=O)(=O)c3ccc(F)cc3)cc2C1=O,1.0,1.0,-1.8,-0.4,i
COCCNC(=O)C1CCCN(C(=O)c2ccc3sccc3c2)CC1 (configuration not stated),1.6,10.9,-1.9,0.8,i
COCCN(Cc1ccc(OC)cc1)c1c(C)nc2ccc(C(=O)NCCc3c[nH]c4ccccc34)cn12,-1.3,-11.5,13.8,5.3,i
COc1ccc(CNC(=O)c2cccc3c(-c4cccnc4)coc23)cc1OC,-15.7,-24.4,-6.2,0.1,i
C[C@@H]1CN([C@@H](C)CO)C(=O)c2cc(NC(=O)C3CCCCC3)ccc2O[C@H]1CN(C)C(=O)Nc1ccc(C(F)(F)F)cc1,-3.9,1.9,1.1,-16.1,i
Cc1ccc(CN2C(=O)CSCC2(C)C(=O)Nc2c(C)cccc2C)cc1 (configuration not stated),-10.1,-0.8,1.6,-0.8,i
CO[C@H](CN(C)Cc1ccc(-c2ccccn2)cc1)[C@H](C)CN(C(=O)Nc1ccc(F)cc1)[C@H](C)CO,-2.4,2.4,1.5,1.3,i
C[C@@H]1CCCCO[C@@H](CN(C)C(=O)Cc2ccccc2)[C@H](C)CN([C@@H](C)CO)C(=O)c2cc(NC(=O)Nc3ccc4c(c3)OCO4)ccc2O1,-2.3,-0.9,-2.6,2.2,i
Cc1noc(C)c1S(=O)(=O)N(C)C[C@H]1OCc2cn(nn2)CCCC(=O)N([C@@H](C)CO)C[C@@H]1C,2.8&2.0,3.8&0.6,-0.6&2.1,0.7&0.7,i
COc1ccc(NC(=O)N(C)C[C@H]2Oc3c(NC(=O)NC(C)C)cccc3C(=O)N([C@H](C)CO)C[C@H]2C)cc1,-0.9,5.7,-3.5,-8.6,i
COC(=O)[C@@]12C[C@@H](CC(=O)NCCCN3CCCC3=O)C(=O)N(Cc3cccc4ccccc34)C1=CCC(C)(C)C2,-35.9,-51.9,9.4,-3.2,i
C[C@H](CO)N1C[C@H](C)[C@H](CN(C)S(C)(=O)=O)Oc2ccc(NC(=O)Nc3ccc(F)cc3)cc2C1=O,-1.3,1.2,0.2,-2.2,i
CC(=O)N(C)C[C@@H]1Oc2ncc(C#Cc3ccncc3)cc2C(=O)N([C@@H](C)CO)C[C@H]1C,-0.2,6.2,1.2,-10.3,i
CO[C@@H]1CC[C@@H]2CCN(C)C(=O)[C@H](C)[C@H](OC)CN(C)C(=O)c3cc(C#N)ccc3OC[C@H]1O2,2.1,3.0,-1.0,5.2,i
C[C@@H]1CN([C@H](C)CO)C(=O)c2cc(NC(=O)Nc3ccc(F)cc3)ccc2O[C@@H](C)CCCCO[C@@H]1CN(C)C(=O)C1CCCCC1,1.0,-2.0,0.0,7.3,i
CN1C(=O)c2cc(NC(=O)Cc3cccs3)ccc2OC[C@@H]2O[C@@H](CC(=O)NCCc3ccncc3)CC[C@@H]21,2.8,2.7,-0.1,0.5,i
C[C@@H]1CCCCO[C@H](CN(C)C(=O)NC2CCCCC2)[C@@H](C)CN([C@H](C)CO)C(=O)c2cc(NS(=O)(=O)c3ccccc3)ccc2O1,0.9,2.8,-1.6,-11.6,i
Cc1noc(C)c1NC(=O)Nc1ccc2c(c1)CC(=O)N([C@@H](C)CO)C[C@@H](C)[C@@H](CN(C)S(=O)(=O)c1ccccc1)O2,1.3,6.5,1.3,-16.6,i
O=C(C[C@H]1CC[C@@H]2[C@H](COC[C@@H](O)CN2C(=O)Nc2ccc(Cl)c(Cl)c2)O1)NCc1ccc(Cl)c(Cl)c1,-57.0,-72.2,-9.3,-2.0,i
CO[C@H]1CN(C)C(=O)c2cc(NC(=O)Nc3ccc(Cl)cc3)ccc2OC[C@@H](C)NC[C@H]1C,-1.8,-4.0,5.3,5.1,i
COc1ccc(NC(=O)Nc2cccc3c2O[C@H](CN(C)C(=O)Nc2ccccc2)[C@H](C)CN([C@@H](C)CO)C3=O)cc1,3.0,3.4,0.4,-1.7,i
C[C@H](CO)N1C[C@H](C)[C@H](CN(C)C(=O)Nc2ccc3c(c2)OCO3)OCCCC[C@H](C)Oc2ccc(NS(=O)(=O)c3ccccc3)cc2C1=O,-3.3,-1.1,-2.6,1.2,i
C/C=C(/CCC1NCCc2c1[nH]c1ccccc21)[Si](C)(C)C (configuration not stated),-17.6,-61.5,16.4,13.9,i

# Part of the list above in order of molecular weight, falling.
SMILES,rRNA inh HTS,rRNA inh HTS OD600,rRNA inh HTS RFP,AF4-AF9 inh,FGF22 binding
C[C@@H]1CCCCO[C@H](CN(C)C(=O)NC2CCCCC2)[C@@H](C)CN([C@H](C)CO)C(=O)c2cc(NS(=O)(=O)c3ccccc3)ccc2O1,0.9,2.8,-1.6,-11.6,i
Cc1noc(C)c1NC(=O)Nc1ccc2c(c1)CC(=O)N([C@@H](C)CO)C[C@@H](C)[C@@H](CN(C)S(=O)(=O)c1ccccc1)O2,1.3,6.5,1.3,-16.6,i
CO[C@@H]1CC[C@@H]2CCN(C)C(=O)[C@H](C)[C@H](OC)CN(C)C(=O)c3cc(C#N)ccc3OC[C@H]1O2,2.1,3.0,-1.0,5.2,i
C/C=C(/CCC1NCCc2c1[nH]c1ccccc21)[Si](C)(C)C (configuration not stated),-17.6,-61.5,16.4,13.9,i

# Following part.
SMILES,rRNA inh HTS,rRNA inh HTS OD600,rRNA inh HTS RFP,AF4-AF9 inh,FGF22 binding
COc1ccc(S(=O)(=O)N(C)C[C@@H]2OCCCC[C@@H](C)Oc3ccc(NC(=O)C4CCCCC4)cc3C(=O)N([C@@H](C)CO)C[C@@H]2C)cc1,2.8,1.6,0.2,-2.6,i
Cc1noc(C)c1NC(=O)N(C)C[C@@H]1Oc2ccc(NC(=O)NC(C)C)cc2C(=O)N([C@@H](C)CO)C[C@H]1C,7.3,15.1,-3.2,-3.0,i
CCNC(=O)C[C@@H]1CC[C@@H]2[C@H](COc3ccc(NC(=O)c4ccc(F)c(F)c4)cc3C(=O)N2C)O1,0.7,5.0,-1.4,-0.4,i
Cc1noc(C)c1S(=O)(=O)Nc1ccc2c(c1)C(=O)N([C@H](C)CO)C[C@H](C)[C@@H](CN(C)S(=O)(=O)c1ccc(Cl)cc1)O2,4.5,0.8,-1.0,-12.3,i
C[C@@H]1CN([C@H](C)CO)C(=O)Cc2cc(NC(=O)CCC(F)(F)F)ccc2O[C@H]1CN(C)Cc1ccccc1,-0.1,14.1,-1.8,-2.1,i
C[C@H]1CN([C@@H](C)CO)S(=O)(=O)c2ccc(C3=CCCCC3)cc2O[C@H]1CN(C)S(C)(=O)=O,-7.8,-14.1,1.2,2.7,i
C[C@@H]1CN([C@H](C)CO)C(=O)c2cc(/C=C/c3ccccc3)cnc2O[C@@H]1CN(C)C(=O)c1cccnc1,8.3,8.3,-2.9,0.0,i
C[C@@H]1CN([C@H](C)CO)S(=O)(=O)c2ccc(C#CCN(C)C)cc2O[C@H]1CN(C)C(=O)C1CCCCC1,5.7,3.0,-2.0,4.2,i
O=C(Cc1ccccc1)N[C@@H]1CC[C@@H](CC(=O)N2CCCCC2)O[C@@H]1CO,0.9,4.2,-0.6,5.1,i
C/C=C/c1cccc(-c2nc(C(=O)NCc3ccccn3)cc3c2[C@H](CCO)N([S@@](=O)C(C)(C)C)C3)c1,-2.5,1.8,7.9,-6.3,i
O=C(Nc1ccc(Cl)cc1)c1cc(S(=O)(=O)N2CCCCC2)ccc1N1CCOCC1,-10.3,-7.7,-0.7,-2.6,i
O=C(C1CCC1)N1CC2(C1)[C@H](c1ccccc1)[C@H](CO)N2C(=O)c1ccccn1,3.1,9.5,0.7,-0.2,i
CO[C@H]1CN(C)C(=O)c2cc(NC(=O)c3ccccc3)ccc2OC[C@H](C)NC[C@H]1C,-1.9&-1.8,-5.0&-3.2,0.0&-1.0,-1.4,i
CCc1nc2ccc(C(=O)N3CCN(c4ccccc4)CC3)cn2c1N(C)CCCc1ccccc1,-2.3,-19.0,31.2,8.7,i
CCCC#Cc1ccc2c(c1)O[C@H](CN(C)C(=O)Nc1ccccc1F)[C@H](C)CN([C@H](C)CO)S2(=O)=O,-13.2,-12.8,1.7,3.7,i
C[C@H]1CN([C@@H](C)CO)C(=O)c2cc(C#CC3CC3)cnc2O[C@H]1CN(C)C(=O)CC1CC1,3.6,12.1,0.0,-2.8,i
Cc1noc(C)c1NC(=O)N(C)C[C@H]1Oc2ccc(N(C)C)cc2CC(=O)N([C@H](C)CO)C[C@H]1C,3.2,1.3,-0.7,-0.9,i
